Assay outcomes as filed in PubChem.
2A firefly – FMDV 2A StopGo reporter, firefly signal | 120,000 tested, 0.23% active | Potency, µM (series often up to 57.5 µM), without a hit: at the highest dose signal change, negative = less light | HEK cells with a luciferase reporter of 2A StopGo recoding | AID 1745856; active = well fitted falling curve with a large enough effect; inconclusive = small, poorly fitted or top-dose-only effect; inactive = no such curve, though single readings can be large or run the other way; further: nearly all actives have a fitted effect of over 60% in size; overnight with compound
StopGo RLuc – lowers the Renilla signal of an FMDV 2A StopGo reporter. 120,000 tested, 0.32% active. Potency, µM (series often up to 57.5 µM), inactives show at the top dose signal change, negative = less light. HEK cells with a luciferase reporter of 2A StopGo recoding; active means well fitted falling curve with a large enough effect; inconclusive means small, poorly fitted or top-dose-only effect; inactive means no such curve, though single readings can be large or run the other way; further: nearly all actives have a fitted effect of over 55% in size; overnight with compound
Active calls of the source: *; ? = inconclusive; & = joins results of further samples; [ ] = remark or other dose. On the % scale 0 is the no-effect control and ±100 the full control effect; potency means the concentration at half of the fitted maximal effect.

[1] CC(NC(=O)CN1C(=O)COc2ccc(S(=O)(=O)N3CCCCCC3)cc21)c1ccccc1 (stereo not given)
[2] O=C(NC1CC(=O)N(c2ccc(F)cc2)C1)c1ccc(S(=O)(=O)N2CCCC2)cc1 (stereo not given)
[3] O=c1cc(-c2ccc(Cl)cc2)sc2nnc(-c3ccccc3F)n12
[4] O=C(c1cn(CCOc2ccccc2F)c2ccccc12)C1CCCCC1
[5] CC(C)=CCN1CCN(Cc2ccc(C#N)cc2)CC1
[6] COc1ccc(S(=O)(=O)c2cc3cc(C)ccc3oc2=O)cc1
[7] CC1CCC/C(=N/NC(=O)C2CC2)C1 (stereo not given)
[8] Cc1c(CCC(=O)Nc2nc3ccccc3[nH]2)c(=O)oc2c(C)c(O)ccc12
compound no.	1	2	3	4	5	6	7	8
2A firefly	-5%	-3%	-5%	-13%	4%	10%	25%	268%[activator]
StopGo RLuc	0%	5%	-8%	9%	-3%	0%	5%	44%[activator]

[9] O=C(CSc1nc2nc[nH]c2c(=O)[nH]1)c1ccc(Br)cc1
[10] NC(=O)CCN(CCC(N)=O)S(=O)(=O)c1ccc(Br)cc1
[11] COc1ccccc1C(=O)OCc1cccc(C#N)c1
[12] CCOc1ccc(CNC(=O)c2cc3c(=O)n(Cc4cccs4)ccc3nc2C)cc1
[13] COc1ccc2c(C)c(CC(=O)N3CCCCC3)c(=O)oc2c1
[14] CCN(CC)S(=O)(=O)c1ccc(NC(=O)CC2c3ccccc3C=CN2C(C)=O)cc1 (stereo not given)
[15] O=C(NC(Cc1c[nH]c2ccccc12)C(=O)O)c1ccccc1F (stereo not given)
[16] Cc1ccc(-n2c(=O)[nH]c3sc4c(c3c2=O)CCNC4)cc1C
compound no.	9	10	11	12	13	14	15	16
2A firefly	7%	-4%	12%	-22%	118%[activator]	-21%	15%	-7%
StopGo RLuc	-8%	-7%	-2%	41%[activator]	18%	16%	-1%	-9%

[17] Brc1ccccc1-c1nc2cc3c(cc2[nH]1)OCCO3
[18] CCOC(=O)c1ccc(N2C(=O)c3n[nH]c(-c4ccco4)c3C2c2ccccc2OC)cc1 (stereo not given)
[19] CC(=O)c1cccc(NC(=O)C(C)Oc2ccc3c(C)cc(=O)oc3c2)c1 (stereo not given)
[20] C=C(C)CN1CCC(NC(=O)c2ccc(C)s2)CC1
[21] N#Cc1ccccc1Sc1ccccc1C(=O)NC1CCCCC1
[22] CCc1ccccc1NC(=O)c1nc2nc(C)cc(C(F)F)n2n1
[23] Cc1ccc(NCc2nc3ccccc3n2CCOc2ccccc2)cc1
[24] O=C(c1sc2cccc(F)c2c1Cl)N1CCC2(CC1)OCCO2
compound no.	17	18	19	20	21	22	23	24
2A firefly	0%	?	31%[activator]	6%	-4%	-10%	-12%	98%[activator]
StopGo RLuc	12%	?	3%	8%	-6%[1.06 µM]	-3%	?	89%[activator]

Screen by screen, as entered above:
2A firefly, nos. 10–21: -4%, 12%, -22%, 118%[activator], -21%, 15%, -7%, 0%, ?, 31%[activator], 6%, -4%

The results go on.
[25] Cc1c(C(=O)Nc2ccc(Br)cc2F)sc2ncnc(N(C)C3CCCCC3)c12
[26] CC(C)NC(=O)CN1CCCC1c1ccsc1 (stereo not given)
[27] O=c1c2cn[nH]c2nc(SCc2cccc(Br)c2)n1-c1ccc(Cl)cc1
[28] Cc1ccc(Cl)cc1-n1nnc(-c2nc(-c3ccc4c(c3)OCO4)no2)c1C
[29] Cc1nc(-c2ccccc2F)sc1C(=O)N1CCCC(C(=O)O)C1 (stereo not given)
[30] O=C(NCc1ccccc1)c1ccc2c(c1)N(Cc1cccc(Cl)c1)C(=O)c1ccccc1S2(=O)=O
[31] COc1ccc(Nc2cc(C(=O)NC3CCCC3)c3ccccc3n2)c(OC)c1
[32] Cc1cccc(/C=N/NC(=O)c2ccccc2)c1
compound no.	25	26	27	28	29	30	31	32
2A firefly	-1%	?	-12%	20%	28%	-19%	-2%	206%[activator]
StopGo RLuc	-15%	-6%	9%	-3%	-13%	29%	8%	29%

[33] Cc1[nH]nc2c1C(c1ccc(Br)cc1)N(c1ccc(Br)cc1)C2=O (stereo not given)
[34] CCN(Cc1ccccc1)C(=O)C1CCC(CNS(=O)(=O)c2ccc3c(c2)CCCC(=O)N3)CC1 (stereo not given)
[35] O=C(NCCc1cccc(F)c1)c1ccc(=O)[nH]c1
[36] CCOc1ccccc1NC(=O)CN1C(=O)CC(c2ccc(OC)c(OC)c2)Sc2ccccc21 (stereo not given)
[37] CC1CCN(c2ccc(NC(=O)c3cccc(Cl)c3)cc2C(=O)O)CC1
[38] CCC(C)N1CCN(Cc2ccc(OC)c(Br)c2)CC1 (stereo not given)
[39] O=C(NCCCO)C(=O)Nc1c2c(nn1-c1ccccc1)CSC2
[40] CC(=O)c1cc2c(ccc3ccccc32)o1
compound no.	33	34	35	36	37	38	39	40
2A firefly	2%	?	0%	51%[activator]	2%	-5%	-12%	0%
StopGo RLuc	-9%	?	-2%	19%	-3%	-7%	-11%	?

Taken from above.
O=c1c2cn[nH]c2nc(SCc2cccc(Br)c2)n1-c1ccc(Cl)cc1 | StopGo RLuc: 9%
O=C(c1cn(CCOc2ccccc2F)c2ccccc12)C1CCCCC1 | 2A firefly: -13%

The list continues.
[41] Cc1ccc(CNC(=O)c2cc3sccc3n2Cc2ccc(Cl)cc2)cc1
[42] COc1cccc(CNC(=O)Nc2ccc3c(c2)N(C)C(=O)c2ccccc2S3)c1
[43] CC(C)(C)NC(=O)c1oc2ccccc2c1NC(=O)c1ccccc1F
[44] CC(=O)N1N=C(c2ccc(C)cc2)CC1c1cn(-c2ccccc2)nc1-c1cccs1 (stereo not given)
[45] CCS(=O)(=O)c1c(S(=O)(=O)CC)c2cc(C(C)(C)C)ccn2c1C(=O)c1ccc(F)cc1
[46] Cc1ccc(-c2cc(C(=O)N(C)CCC#N)c3ccccc3n2)cc1
[47] Cn1c(=O)c2c(c3ccccc31)OC(=O)CC2c1cccc(F)c1 (stereo not given)
[48] O=C(O)CNC1Cc2ccccc2C1
compound no.	41	42	43	44	45	46	47	48
2A firefly	10%	?	-19%	-7%	-17%	117%[activator]	-3%	-4%
StopGo RLuc	-5%	?	28%	-4%	-9%	146%[activator]	29%	3%

[49] CCOc1ccc(/C=N/OCc2c(Cl)cccc2Cl)cc1OC
[50] COc1ccc(S(=O)(=O)N(CCc2ccccc2)CC(=O)NCc2ccccc2)cc1OC
[51] O=C(NCc1ccccc1Cl)C1CCCN(c2nc3ccccc3n3cccc23)C1 (stereo not given)
[52] COc1ccc(N2CCN(S(=O)(=O)c3ccc(OC)c(-c4noc(C)n4)c3)CC2)cc1
[53] CCOc1ccc(CCNC(=O)c2cc3c(s2)-c2ccccc2OC3)cc1OCC
[54] CCOc1ccc(C2C(C(=O)Nc3ccccc3)=C(C)Nc3nc(-c4ccccc4)nn32)cc1OC (stereo not given)
[55] COc1ccc2c(c1)c(=O)c(C(=O)c1ccccc1)cn2CC(=O)Nc1ccc2c(c1)OCO2
[56] CCOC(=O)CCCCCCN
compound no.	49	50	51	52	53	54	55	56
2A firefly	0%	-11%	-14%	-7%	0%	-9%	-11%	-8%
StopGo RLuc	7%	221%[activator]	11%	15%	-2%	-9%	-14%	-5%

[57] CCN(CC)S(=O)(=O)c1ccc(C)c(C(=O)OCc2nc3ccccc3nc2C)c1
[58] COC(=O)c1cc(S(=O)(=O)NCC2CCN(Cc3cccc(F)c3)CC2)c[nH]1
[59] Cc1cc(C)c2c(C)c(C(=O)NCC(c3ccco3)N3CCOCC3)oc2c1 (stereo not given)
[60] CCOC(=O)C1CCC(CNC(=O)Nc2c(NC)c3ccccc3oc2=O)CC1 (stereo not given)
[61] CCOc1ccccc1NC(=O)CCS(=O)(=O)c1ccc(OC)cc1
[62] C=CCNC(=O)N(C)Cc1ccc(C(N)=O)cc1
[63] COC(=O)Nc1ccc(C(=O)NCc2ccccc2)cc1
[64] CCC(CC)(CC(=O)Nc1ccccc1NS(=O)(=O)c1ccc(F)cc1)C(=O)O
compound no.	57	58	59	60	61	62	63	64
2A firefly	-10%	1%&-11%	25%	0%	-22%	3%	5%	7%
StopGo RLuc	-16%	-9%&0%	8%	43%[activator]	-13%	-2%	37%[activator]	20%

[65] Cc1ccccc1NS(=O)(=O)c1nnc(NC(=O)c2ccccc2C)s1
[66] CCc1nnc(Cn2cc(S(=O)(=O)N(C)C)ccc2=O)o1
[67] CCCOC(=O)COc1ccc2c(=O)c(-c3ccccc3)coc2c1
[68] NCCC(c1ccccc1)c1ccccc1
[69] CC(NC(=O)C(c1ccccc1)C(C)C)c1ccc2c(c1)CCCC2 (stereo not given)
[70] COc1cc(-c2noc(-c3cc(C)[nH]n3)n2)cc(OC)c1OC
[71] O=[N+]([O-])c1ccc(N/N=C/c2c[nH]c3ccccc23)c(S(=O)(=O)Nc2ccc(Cl)cc2)c1
[72] CC(C)(CO)NC(=O)CSc1ccc(C(F)(F)F)cc1Cl
compound no.	65	66	67	68	69	70	71	72
2A firefly	-15%	-2%	11%	3%	17%	100%[activator]	25µM*	25%
StopGo RLuc	1%	1%	-3%	14%	32%[activator]	0%	-93%	-5%

Given field by field: part of the list above
[16] Cc1ccc(-n2c(=O)[nH]c3sc4c(c3c2=O)CCNC4)cc1C
- 2A firefly: -7%
- StopGo RLuc: -9%
[13] COc1ccc2c(C)c(CC(=O)N3CCCCC3)c(=O)oc2c1
- 2A firefly: 118%[activator]
- StopGo RLuc: 18%
[11] COc1ccccc1C(=O)OCc1cccc(C#N)c1
- 2A firefly: 12%
- StopGo RLuc: -2%
[56] CCOC(=O)CCCCCCN
- 2A firefly: -8%
- StopGo RLuc: -5%

Going on with the list.
[73] Cc1cc(C)cc(-n2c(/C=C/c3cccc(F)c3)nc3ccccc3c2=O)c1
[74] CC1CN(C(=O)COc2ccc(Cl)cc2Cl)c2ccccc2NC1=O (stereo not given)
[75] CCOC(=O)COc1ccc2c(C)c(C)c(=O)oc2c1C
[76] CC(C)C(=O)NCC1(C)CC(NC(=O)C(C)C)CC(C)(C)C1 (stereo not given)
[77] O=[N+]([O-])c1ccc2nonc2c1Nc1cc(Cl)ccc1Cl
[78] Cc1c(Cl)cccc1NC(=O)CSc1ccc(-c2ccccn2)nn1
[79] CCCCN(C)CCCNC(=O)C1CCN(S(=O)(=O)CCC)CC1
[80] COc1ccc(NC(=O)c2ccc3c(c2)N(Cc2cccc(Cl)c2)C(=O)c2ccccc2S3=O)cc1Cl (stereo not given)
compound no.	73	74	75	76	77	78	79	80
2A firefly	-16%	18%	-7%	33%[activator]	20%	21%	-18%	-15%
StopGo RLuc	17%	-2%	-9%	21%	5%	-23%	-7%	-15%

[81] O=C(CCc1cccs1)N(CC1CCOC1)C1CC1 (stereo not given)
[82] Cn1c(=O)c2c(nc(NCc3ccc4c(c3)OCO4)n2Cc2c(F)cccc2Cl)n(C)c1=O
[83] CC(Sc1nnc2ccc3ccccc3n12)C(=O)Nc1ccc(Cl)cc1 (stereo not given)
[84] CCN(CC)C(=O)c1ccc(NC(=S)NCCOC)cc1
[85] CC(Nc1ccc(N)cc1Cl)c1ccccc1 (stereo not given)
[86] CC1CN(c2ccccc2)c2nc3c(c(=O)[nH]c(=O)n3C)n2C1 (stereo not given)
[87] Cc1cc(C)n(-c2nc3ccccc3nc2Nc2cccc(C(=O)NCCc3ccccc3)c2)n1
[88] CCC(C)n1c(SCC(=O)Nc2ccccc2C(=O)OC)nc2ccsc2c1=O (stereo not given)
[89] Cc1cc(C)[nH]n1
[90] COc1ccc2nc(NC(=O)c3cc(=O)c4cc(C)cc(C)c4o3)sc2c1
[91] COc1ccc(C(=O)NS(C)(=O)=O)cc1F
compound no.	81	82	83	84	85	86	87	88	89	90	91
2A firefly	2%	-27%	-8%	6%	22%	-11%	6%	-4%	4%	5%&-6%	-3%
StopGo RLuc	-1%	-26%	-2%	-1%	0%	-12%	-4%	-1%	12%	1%&-10%	2%
